# HIV Env fusion: HIV envelope-mediated fusion inhibition; HeLa-JRFL Env/CEM21 cell fusion, luciferase; inhibition, % at 12.3 µM; 360,000 compounds, 1.1% hits;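 active = mean replicate inhibition score of at least 50 and every replicate individually at or above 50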;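 also: 0% = plate neutral controls and 100% = maraviroc near 300 nM; one replicate is shown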
# Yeast UUG start: yeast start codon fidelity modulation. 350,000 compounds, 0.13% hits. S. cerevisiae UUG-firefly luciferase reporter, luminescence/redox ratio. AID 602363. activity score, % at 18.7 µM;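 active = replicate mean at a twofold rise or more, about +100% in these data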;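 also: firefly luciferase made from a UUG start codon reports start codon fidelity; reporter light over untreated wells divided by growth signal over untreated wells; some hits fall short of that in this replicate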
# * = called active by the depositor; [ ] = another dose, or the depositor's remark. Only part of the results is shown (hit frequency here may not be typical).
SMILES	HIV Env fusion	Yeast UUG start
C[C@@H]1CN([C@@H](C)CO)C(=O)c2cc(NC(=O)Cn3cnnn3)ccc2O[C@@H]1CN(C)Cc1ccc(Cl)c(Cl)c1	-3.5[16.7 µM]	15.8
Cc1noc(C)c1S(=O)(=O)N(C)C[C@@H]1OCCCC[C@H](C)Oc2ccc(NS(=O)(=O)c3ccc(F)cc3)cc2C(=O)N([C@@H](C)CO)C[C@H]1C	-19.3[16.7 µM]	12.7
CCC(=O)N(C)C[C@H]1Oc2ncc(C#CC3(O)CCCC3)cc2C(=O)N([C@H](C)CO)C[C@@H]1C	-5.1[16.7 µM]	2.3
C/C=C/c1ccc2c(c1)O[C@@H](CN(C)C(=O)Nc1ccc(F)cc1)[C@@H](C)CN([C@@H](C)CO)S2(=O)=O	10.4[16.7 µM]	3.9
CNC[C@@H]1Oc2ccc(NC(=O)Nc3ccc(C(F)(F)F)cc3)cc2C(=O)N([C@@H](C)CO)C[C@@H]1C	14.3[16.7 µM]	-3.8
O=C(C[C@H]1C[C@@H]2c3cc(NC(=O)Nc4ccccc4F)ccc3O[C@@H]2[C@@H](CO)O1)NCc1cc(F)ccc1F	12.4[16.7 µM]	12.1
C[C@H]1CN([C@@H](C)CO)S(=O)(=O)c2ccc(C3=CCCC3)cc2O[C@@H]1CN(C)Cc1ccccc1F	-26.5[16.7 µM]	21.8
O=C(NCC[C@@H]1CC[C@H](NC(=O)C2CC2)[C@@H](CO)O1)c1cnccn1	-15.5[16.7 µM]	-1.7
COc1ccc(CN(C)C[C@H]2Oc3ccc(NC(=O)Nc4cccc5ccccc45)cc3C(=O)N([C@@H](C)CO)C[C@H]2C)cc1	16.4[16.7 µM]	2.5
C[C@@H]1CN([C@H](C)CO)S(=O)(=O)c2ccc(C3=CCCC3)cc2O[C@H]1CN(C)CC1CCOCC1	24.6[16.7 µM]	39.7
O=C(NCC[C@@H]1CC[C@H](NS(=O)(=O)c2ccc(Cl)cc2)[C@@H](CO)O1)c1ccccc1F	17.6[16.7 µM]	8.8
O=C(C[C@H]1CC[C@H]2[C@@H](COC[C@H](O)CN2Cc2cc(F)cc(F)c2)O1)NC1CCCC1	21.5[16.7 µM]	3.2
C[C@H](CO)N1C[C@H](C)[C@H](CN(C)CC2CCOCC2)Oc2cc(Br)ccc2S1(=O)=O	-15.1[16.7 µM]	-10.7
COC(=O)C[C@@H]1CC[C@H]2[C@H](COc3ccc(NC(=O)Nc4ccc(C#N)cc4)cc3C(=O)N2C)O1	18.1[16.7 µM]	-5.6
COc1ccccc1CN1C[C@@H](C)[C@H](OC)CN(C)C(=O)c2ccc(NC(C)=O)cc2OC[C@H]1C	-7.4[16.7 µM]	-0.1
C[C@H](CO)N1C[C@H](C)[C@@H](CN(C)C(=O)CC2CC2)Oc2cc(C#CCC3CCCC3)ccc2S1(=O)=O	4.0[16.7 µM]	-1.0
CN1C(=O)c2cc(NC(=O)C3CCOCC3)ccc2OC[C@H]2O[C@H](CC(=O)NCC3CC3)CC[C@@H]21	-23.3[16.7 µM]	1.3
O=C(N[C@@H]1CC[C@@H](CCNS(=O)(=O)c2ccccc2)O[C@H]1CO)c1cccnc1	7.0[16.7 µM]	-12.6
CC(=O)N(C)C[C@H]1Oc2ncc(-c3ccccc3F)cc2C(=O)N([C@H](C)CO)C[C@@H]1C	-0.9[16.7 µM]	-5.0
COc1ccccc1-c1cnc2c(c1)C(=O)N([C@H](C)CO)C[C@H](C)[C@H](CN(C)CC1CCCC1)O2	-7.3[16.7 µM]	0.7

# Next compounds
SMILES	HIV Env fusion	Yeast UUG start
CCC(=O)N(C)C[C@@H]1Oc2ncc(C#Cc3ccncc3)cc2C(=O)N([C@@H](C)CO)C[C@@H]1C	-11.7[16.7 µM]	-9.4
COCC#Cc1cnc2c(c1)C(=O)N([C@@H](C)CO)C[C@@H](C)[C@H](CN(C)C(=O)CCN1CCCCC1)O2	5.6[16.7 µM]	2.6
Cc1noc(C)c1NC(=O)N(C)C[C@@H]1OCCCC[C@@H](C)Oc2ccc(NC(=O)C3CCCCC3)cc2C(=O)N([C@H](C)CO)C[C@H]1C	10.5[16.7 µM]	0.8
C[C@H]1CN([C@@H](C)CO)C(=O)Cc2cc(NC(=O)Cn3cnnn3)ccc2O[C@@H]1CN(C)Cc1ccc(C(=O)O)cc1	-11.3[16.7 µM]	2.6
Cc1cccc(S(=O)(=O)N[C@H]2CC[C@@H](CCNS(=O)(=O)c3ccccc3F)O[C@H]2CO)c1	28.9[16.7 µM]	14.3
C[C@@H]1CN([C@@H](C)CO)C(=O)Cc2cc(NC(=O)Cc3cn(C)c4ccccc34)ccc2O[C@@H]1CN(C)Cc1ccc(C(F)(F)F)cc1	-156.6[16.7 µM]	62.2
C[C@H]1CN([C@@H](C)CO)C(=O)c2cc(C#CCN(C)C)cnc2O[C@@H]1CN(C)Cc1ccc2c(c1)OCO2	-5.6[16.7 µM]	-10.3
COc1cccc(NC(=O)N(C)C[C@H]2Oc3ncc(C4=CCCCC4)cc3C(=O)N([C@@H](C)CO)C[C@@H]2C)c1	-44.0[16.7 µM]	1.7
C[C@@H]1CN([C@@H](C)CO)C(=O)c2cc(N(C)C)ccc2O[C@H]1CN(C)S(C)(=O)=O	4.0[16.7 µM]	-4.2
C[C@@H]1CN([C@H](C)CO)S(=O)(=O)c2ccc(-c3cccc(C(=O)N(C)C)c3)cc2O[C@@H]1CN(C)C	9.3[16.7 µM]	-4.3
C[C@H]1CCCCO[C@@H](CN(C)CC2CCCCC2)[C@@H](C)CN([C@@H](C)CO)C(=O)c2cc(NS(=O)(=O)c3cccs3)ccc2O1	-30.9[16.7 µM]	3.7
C[C@@H]1CN([C@@H](C)CO)S(=O)(=O)c2ccc(-c3cncnc3)cc2O[C@@H]1CN(C)Cc1ccncc1	-22.6[16.7 µM]	-6.3
C[C@@H]1CN([C@@H](C)CO)S(=O)(=O)c2ccc(-c3ccncc3)cc2O[C@H]1CN(C)C(=O)C1CCCCC1	-5.6[16.7 µM]	0.5
COCC(=O)Nc1ccc2c(c1)C(=O)N(C)[C@@H]1CC[C@H](CC(=O)OC)O[C@@H]1CO2	-9.6[16.7 µM]	4.2
C[C@@H]1CN([C@H](C)CO)C(=O)c2cc(NS(=O)(=O)c3cn(C)cn3)ccc2O[C@@H](C)CCCCO[C@@H]1CN(C)S(=O)(=O)c1ccccc1	-7.0[16.7 µM]	4.9
CCC(=O)N1C[C@@H](O)COC[C@@H]2O[C@H](CC(=O)NCc3ccc(Oc4ccccc4)cc3)CC[C@H]21	-5.3[16.7 µM]	7.3
CCCNC(=O)C[C@@H]1CC[C@@H]2[C@@H](COc3ccc(NC(=O)c4ccc(OC)cc4)cc3C(=O)N2C)O1	4.5[16.7 µM]	4.2
Cc1ccc(S(=O)(=O)N(C)C[C@H]2OCCCC[C@H](C)Oc3ccc(NC(=O)Nc4ccccc4)cc3C(=O)N([C@H](C)CO)C[C@H]2C)cc1	2.7[16.7 µM]	-16.9
Cc1noc(C)c1S(=O)(=O)Nc1ccc2c(c1)C(=O)N([C@H](C)CO)C[C@H](C)[C@@H](CN(C)Cc1ccncc1)O2	1.6[16.7 µM]	7.4
CN(C)CC(=O)N[C@@H]1CC[C@H](CCn2cc(C3CCCCC3)nn2)O[C@H]1CO	-5.3[16.7 µM]	-0.5

# (further entries)
# Values run as follows: HIV Env fusion	Yeast UUG start
C[C@@H]1CN([C@H](C)CO)S(=O)(=O)c2ccc(C#Cc3ccccc3F)cc2O[C@H]1CN(C)C(=O)Cc1cccnc1
 : 21.2[16.7 µM]	0.5
O=C(CCN1CCCCC1)NCC[C@H]1CC[C@H](NC(=O)Nc2ccc(F)cc2)[C@@H](CO)O1
 : -0.3[16.7 µM]	-2.6
Cc1noc(C)c1NC(=O)N(C)C[C@H]1OCCCC[C@@H](C)Oc2ccc(NS(=O)(=O)c3c(C)noc3C)cc2C(=O)N([C@H](C)CO)C[C@@H]1C
 : 1.5[16.7 µM]	-6.0
N#C[C@H]1[C@@H](c2ccc(-c3cccc(F)c3)cc2)[C@@H](CO)N1C(=O)c1cccnc1
 : -6.9[16.7 µM]	20.5
COc1ccc(C#Cc2cnc3c(c2)C(=O)N([C@@H](C)CO)C[C@H](C)[C@H](CN(C)CC2CCCC2)O3)cc1
 : -12.8[16.7 µM]	3.6
CCCNC(=O)N(C)C[C@@H]1Oc2cc(-c3ccncc3)ccc2S(=O)(=O)N([C@H](C)CO)C[C@@H]1C
 : 24.3[16.7 µM]	-14.9
CCCCN1C(=O)C(CC(=O)NCCc2ccccn2)CC(C(=O)N(C(C)C)C(C)C)=C1C (stereo unspecified)
 : -5.8	-6.7
CCc1cnc(N2[C@H](CO)[C@H](c3ccccc3)[C@@H]2C#N)s1
 : -0.5[16.7 µM]	-5.0
C[C@@H]1CN([C@H](C)CO)C(=O)c2cc(-c3ccc(C(=O)N(C)C)cc3)cnc2O[C@@H]1CN(C)C
 : -10.3[16.7 µM]	-5.9
COc1ccc(CN(C)C[C@H]2Oc3ccc(NC(=O)Nc4ccc5c(c4)OCO5)cc3C(=O)N([C@H](C)CO)C[C@@H]2C)cc1
 : 41.0[16.7 µM]	-4.1
CC(C)NC(=O)N(C)C[C@H]1Oc2ccc(NS(=O)(=O)c3ccccc3)cc2CC(=O)N([C@H](C)CO)C[C@@H]1C
 : 9.8[16.7 µM]	3.6
C[C@H](CO)N1C[C@H](C)[C@H](CN(C)Cc2cccc(C(=O)O)c2)Oc2ncc(C#CCN(C)C)cc2C1=O
 : -9.6[16.7 µM]	-1.4
CO[C@H]1CN(C)C(=O)c2ccc(NC(C)=O)cc2OC[C@@H](C)N(C(=O)C2CCC2)C[C@H]1C
 : 5.6[16.7 µM]	-1.7
O=C(C[C@H]1C[C@@H]2c3cc(NS(=O)(=O)c4ccccc4)ccc3O[C@@H]2[C@@H](CO)O1)NCC1CC1
 : 3.1[16.7 µM]	5.6
CC(C)NC(=O)N(C)C[C@H]1Oc2cc(-c3ccccc3)ccc2S(=O)(=O)N([C@H](C)CO)C[C@H]1C
 : 4.9[16.7 µM]	-1.2
C[C@@H]1CN([C@@H](C)CO)C(=O)Cc2cc(NC(=O)Nc3ccccc3)ccc2O[C@H]1CN(C)Cc1ccc(Oc2ccccc2)cc1
 : 9.5[16.7 µM]	6.4
C[C@H](CO)N1C[C@H](C)[C@@H](CN(C)CC2CCCCC2)Oc2c(NS(=O)(=O)c3ccc(Cl)cc3)cccc2C1=O
 : 7.9[16.7 µM]	17.2
C[C@H](CO)N1C[C@H](C)[C@@H](CN(C)Cc2ccncc2)Oc2cc(C3=CCCCC3)ccc2S1(=O)=O
 : 64.0*[16.7 µM]	-16.9
COCCNC(=O)C[C@@H]1C[C@H]2c3cc(NC(=O)Nc4ccccc4F)ccc3O[C@H]2[C@H](CO)O1
 : 2.4[16.7 µM]	-3.0
Cc1ccc(S(=O)(=O)Nc2ccc3c(c2)CC(=O)N([C@@H](C)CO)C[C@@H](C)[C@@H](CN(C)S(=O)(=O)c2cn(C)cn2)O3)cc1
 : -2.9[16.7 µM]	-8.5

# An excerpt from the list above:
# Values run as follows: HIV Env fusion	Yeast UUG start
C[C@H](CO)N1C[C@H](C)[C@@H](CN(C)Cc2ccncc2)Oc2cc(C3=CCCCC3)ccc2S1(=O)=O
 : 64.0*[16.7 µM]	-16.9
COCCNC(=O)C[C@@H]1C[C@H]2c3cc(NC(=O)Nc4ccccc4F)ccc3O[C@H]2[C@H](CO)O1
 : 2.4[16.7 µM]	-3.0
Cc1ccc(S(=O)(=O)Nc2ccc3c(c2)CC(=O)N([C@@H](C)CO)C[C@@H](C)[C@@H](CN(C)S(=O)(=O)c2cn(C)cn2)O3)cc1
 : -2.9[16.7 µM]	-8.5

# Remaining list, next part.
# Values run as follows: HIV Env fusion	Yeast UUG start
CC(C)NC(=O)N(C)C[C@H]1OCCCC[C@@H](C)Oc2ccc(NC(=O)Nc3ccc(C(F)(F)F)cc3)cc2C(=O)N([C@@H](C)CO)C[C@H]1C
 : 12.8[16.7 µM]	9.9
C[C@@H]1CN([C@H](C)CO)S(=O)(=O)c2ccc(C#CC3CC3)cc2O[C@@H]1CN(C)Cc1ccc(F)cc1
 : 16.5[16.7 µM]	15.1
Cc1ccc(S(=O)(=O)Nc2ccc3c(c2)C(=O)N([C@@H](C)CO)C[C@@H](C)[C@@H](CN(C)Cc2ccc(C(F)(F)F)cc2)OCCCC[C@@H](C)O3)cc1
 : 79.2*[16.7 µM]	61.8
CC(C)NC(=O)Nc1ccc2c(c1)C(=O)N([C@H](C)CO)C[C@@H](C)[C@H](CN(C)Cc1ccc(C(F)(F)F)cc1)OCCCC[C@@H](C)O2
 : 74.7*[16.7 µM]	6.0
COc1ccc(S(=O)(=O)Nc2ccc3c(c2)C(=O)N([C@@H](C)CO)C[C@H](C)[C@@H](CN(C)S(=O)(=O)c2ccc(C)cc2)OCCCC[C@@H](C)O3)cc1
 : -61.4[16.7 µM]	11.5
C[C@@H]1CN([C@H](C)CO)C(=O)c2cc(NC(=O)CCCN(C)C)ccc2O[C@@H](C)CCCCO[C@H]1CN(C)S(=O)(=O)c1ccccc1
 : 25.6[16.7 µM]	24.0
C[C@H](CO)N1C[C@H](C)[C@@H](CN(C)Cc2ccccn2)Oc2cc(C#CCN(C)C)ccc2S1(=O)=O
 : -3.9[16.7 µM]	-1.6
CCCN(C)C[C@@H]1Oc2cc(C#CC3CC3)ccc2S(=O)(=O)N([C@H](C)CO)C[C@@H]1C
 : 1.0[16.7 µM]	33.8
Cc1ccc(S(=O)(=O)Nc2ccc3c(c2)C(=O)N([C@@H](C)CO)C[C@@H](C)[C@H](CN(C)S(=O)(=O)c2ccc(C)cc2)OCCCC[C@@H](C)O3)cc1
 : -23.2[16.7 µM]	2.7
CCCC(=O)Nc1ccc2c(c1)C(=O)N(C)[C@H]1CC[C@@H](CC(=O)NCCc3ccncc3)O[C@H]1CO2
 : -2.5[16.7 µM]	-14.1
C[C@@H]1CCCCO[C@@H](CN(C)S(=O)(=O)c2ccc(F)cc2)[C@@H](C)CN([C@H](C)CO)C(=O)c2cc(NC(=O)CCCCCC(=O)Nc3ccccc3N)ccc2O1
 : 1.8[16.7 µM]	-1.0

# Source: PubChem BioAssay (Broad Institute)
